Screens from PubChem.
Vaccinia stage – blocks a specific stage of Vaccinia orthopoxvirus infection, primary screen, cell-based, single point; Vaccinia-infected cells, mCherry/Venus stage reporter fluorescence; active compounds read low; some inactives read as strong as hits; activity change (mCherry), % (concentration not given with the values); 89,000 tested, 0.01% active; AID 1053133, 2014;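 active = mCherry past -33% and 40 or more points under the early reporter, replicates agreeing; inconclusive = past -33% without that gap or agreement; tested in A549 cells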;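 also: scaled between vehicle wells and reference inhibitor wells; 23 nL library stock went into each well; one replicate is shown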
Vaccinia stage Venus – recorded beside Vaccinia stage, whose call it bears; activity change (Venus), %; measured here: Venus reporter, other viral stage;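 negative = less Venus signal; first of two replicates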
* = called active by the depositor; ? = inconclusive; / = not tested or not shown.

SMILES	Vaccinia stage	Vaccinia stage Venus
C[C@@H]1CN([C@@H](C)CO)C(=O)c2cccc(NS(=O)(=O)c3cccs3)c2O[C@H]1CN(C)CC1CCCCC1	8	8
C[C@@H]1CCCCO[C@H](CN(C)S(=O)(=O)c2cn(C)cn2)[C@@H](C)CN([C@H](C)CO)C(=O)c2cc(NC(=O)CCC(F)(F)F)ccc2O1	17	5
CCC(=O)N1CC2(C1)[C@H](c1ccccc1)[C@H](CO)N2Cc1cccc(Cl)c1	-1	-1
COC(=O)[C@@H]1[C@@H](CO)[C@@H]2Cn3c(ccc(-c4ccc(F)cc4)c3=O)[C@@H]2N1C(=O)C1CCC1	-9	-5
O=C(C[C@H]1C[C@H]2c3cc(NS(=O)(=O)c4ccc(F)cc4)ccc3O[C@H]2[C@@H](CO)O1)NCc1ccccn1	1	-1
CN1C(=O)c2cc(NC(=O)c3cnccn3)ccc2OC[C@H]2O[C@@H](CC(=O)NC3CCC3)CC[C@H]21	6	7
CCCC(=O)Nc1ccc2c(c1)OC[C@H](C)N(C(=O)CC1CC1)C[C@H](C)[C@H](OC)CN(C)C2=O	20	9
O=C(O)C[C@@H]1CC[C@H](NC(=O)CCN2CCCCC2)[C@@H](CO)O1	24	17
Cc1noc(C)c1NC(=O)Nc1ccc2c(c1)CC(=O)N([C@@H](C)CO)C[C@@H](C)[C@@H](CN(C)Cc1ccncc1)O2	27	19
C[C@@H]1CCCCO[C@H](CN(C)C(=O)Cc2ccccc2)[C@H](C)CN([C@@H](C)CO)C(=O)c2cc(NC(=O)Cc3ccccc3)ccc2O1	-24	-16
CC(C)NC(=O)N[C@@H]1C=C[C@@H](CC(=O)N2CCCCC2)O[C@@H]1CO	5	5
O=C(NCC[C@H]1CC[C@H](NC(=O)C2CC2)[C@H](CO)O1)Nc1ccc(C(F)(F)F)cc1	-4	6
C[C@@H]1CCCCO[C@@H](CN(C)C(=O)NC2CCCCC2)[C@@H](C)CN([C@H](C)CO)C(=O)c2cc(NS(=O)(=O)c3cccs3)ccc2O1	17	15
C[C@H]1CN([C@@H](C)CO)C(=O)c2cc(Br)cnc2O[C@H]1CN(C)Cc1ccccc1	3	2
COc1ccccc1NC(=O)N1CC(=O)N2[C@H](CO)[C@@H](c3ccc(-c4ccccc4)cc3)[C@H]2C1	?	/
O=C(C[C@H]1CC[C@H]2[C@@H](COC[C@@H](O)CN2S(=O)(=O)c2cccc(F)c2)O1)NCCCN1CCOCC1	10	6
COCCNC(=O)C[C@@H]1CC[C@H]2[C@H](COc3ccc(NC(=O)Cc4ccccc4)cc3C(=O)N2C)O1	0	7
O=C(C1CCOCC1)N1C[C@@H]2[C@H](c3ccccc31)[C@@H](CO)N2Cc1ccc(Cl)cc1	5	10
C[C@@H]1CN([C@H](C)CO)C(=O)c2cc(C#CC3(O)CCCC3)cnc2O[C@H]1CN(C)C(=O)CC1CC1	-3	-7
CCCNC(=O)N1CCC2(CC1)CN(C(=O)c1ccccc1)[C@@H](CO)c1[nH]c3cc(OC)ccc3c12	15	10

As a working copy, some entries already given.
SMILES	Vaccinia stage	Vaccinia stage Venus
COc1ccccc1NC(=O)N1CC(=O)N2[C@H](CO)[C@@H](c3ccc(-c4ccccc4)cc3)[C@H]2C1	?	/
O=C(C[C@H]1CC[C@H]2[C@@H](COC[C@@H](O)CN2S(=O)(=O)c2cccc(F)c2)O1)NCCCN1CCOCC1	10	6
COCCNC(=O)C[C@@H]1CC[C@H]2[C@H](COc3ccc(NC(=O)Cc4ccccc4)cc3C(=O)N2C)O1	0	7
O=C(C1CCOCC1)N1C[C@@H]2[C@H](c3ccccc31)[C@@H](CO)N2Cc1ccc(Cl)cc1	5	10

The results go on:
SMILES	Vaccinia stage	Vaccinia stage Venus
CC(C)NC(=O)Nc1ccc2c(c1)CC(=O)N([C@H](C)CO)C[C@@H](C)[C@H](CN(C)Cc1ccncc1)O2	16	16
O=C(Cc1ccccn1)NCC[C@@H]1CC[C@H](NC(=O)c2ccccc2F)[C@H](CO)O1	2	6
C[C@H]1CCCCO[C@H](CN(C)S(=O)(=O)c2cn(C)cn2)[C@@H](C)CN([C@@H](C)CO)C(=O)c2cc(NC(=O)CCC(F)(F)F)ccc2O1	28	21
COc1ccc(-c2ccc([C@H]3[C@H](C#N)N(C(=O)NC(C)C)[C@H]3CO)cc2)cc1	-24	-13
CCS(=O)(=O)N1CCCCN2[C@@H](CO)[C@H](c3ccc(C#Cc4ccccc4OC)cc3)[C@@H]2C1	7	-3
COCCNC(=O)C[C@@H]1CC[C@H]2[C@H](COc3ccc(NS(=O)(=O)c4ccc(Cl)cc4)cc3C(=O)N2C)O1	4	-8
C[C@@H]1CN([C@H](C)CO)C(=O)c2cc(NS(=O)(=O)c3ccccc3)ccc2O[C@@H]1CN(C)Cc1ccncc1	3	-1
CN(C)C(=O)c1cc2c(c(-c3cccc(-c4ccc(F)cc4)c3)n1)[C@@H](CCO)N([S@](=O)C(C)(C)C)C2	-1	18
C[C@@H]1CCCCO[C@H](CN(C)C)[C@@H](C)CN([C@H](C)CO)C(=O)c2cc(NC(=O)c3ccccc3)ccc2O1	1	2
CCCN(C)C[C@H]1Oc2cc(C#CCN(C)C)ccc2S(=O)(=O)N([C@@H](C)CO)C[C@H]1C	6	7
C[C@H](CO)N1C[C@H](C)[C@H](CN(C)Cc2ccccc2)Oc2ncc(C3=CCCCC3)cc2C1=O	-20	-12
CC(C)NC(=O)Nc1ccc2c(c1)C(=O)N([C@@H](C)CO)C[C@@H](C)[C@H](CN(C)C(=O)NC1CCCCC1)O2	8	4
C[C@H]1CN([C@@H](C)CO)C(=O)c2cc(NS(=O)(=O)c3ccccc3)ccc2O[C@@H]1CN(C)S(=O)(=O)c1cn(C)cn1	46	18
Cc1cccc(S(=O)(=O)N2CCCCN3[C@H](CO)[C@@H](c4ccc(C#C[C@H](C)O)cc4)[C@H]3C2)c1	?	/
CO[C@@H]1CN(C)C(=O)c2ccc(NC(=O)c3cccc(F)c3)cc2OC[C@@H](C)N(C(C)=O)C[C@@H]1C	2	10
CCCNC(=O)N1[C@@H]2CN(C(=O)Nc3ccc(F)cc3)c3ccccc3[C@@H]2[C@@H]1CO	20	9
CO[C@@H]1CN(C)C(=O)c2cc(NC(=O)C3CC3)ccc2OC[C@H](C)N(Cc2cccnc2)C[C@H]1C	-3	-5
O=C(NCC(F)(F)F)[C@H]1[C@H](CO)[C@H]2Cn3c(cccc3=O)[C@H]2N1C(=O)C1CCC1	17	12
O=C(Nc1ccc(F)cc1)N1CCCCN2[C@H](CO)[C@@H](c3ccc(-c4ccncc4)cc3)[C@@H]2C1	-29	-20
CN1[C@H](C(=O)NC2CCCC2)[C@@H](CO)[C@@H]2Cn3c(ccc(/C=C/c4ccccc4)c3=O)[C@@H]21	-3	9

An excerpt of these results, as labelled records.
O=C(Nc1ccc(F)cc1)N1CCCCN2[C@H](CO)[C@@H](c3ccc(-c4ccncc4)cc3)[C@@H]2C1
  Vaccinia stage: -29; Vaccinia stage Venus: -20

CO[C@@H]1CN(C)C(=O)c2cc(NC(=O)C3CC3)ccc2OC[C@H](C)N(Cc2cccnc2)C[C@H]1C
  Vaccinia stage: -3; Vaccinia stage Venus: -5

CO[C@@H]1CN(C)C(=O)c2ccc(NC(=O)c3cccc(F)c3)cc2OC[C@@H](C)N(C(C)=O)C[C@@H]1C
  Vaccinia stage: 2; Vaccinia stage Venus: 10

Cc1cccc(S(=O)(=O)N2CCCCN3[C@H](CO)[C@@H](c4ccc(C#C[C@H](C)O)cc4)[C@H]3C2)c1
  Vaccinia stage: ?; Vaccinia stage Venus: /

Following part
SMILES	Vaccinia stage	Vaccinia stage Venus
C[C@H]1CCCCO[C@@H](CN(C)CC2CC2)[C@@H](C)CN([C@@H](C)CO)C(=O)c2cc(NC(=O)c3ccccc3)ccc2O1	-27	-20
COC(=O)[C@@H]1[C@@H](CO)[C@@H]2Cn3c(ccc(C4=CCCC4)c3=O)[C@@H]2N1C(=O)C1CC1	7	3
COc1cccc(C(=O)Nc2ccc3c(c2)OC[C@@H](C)N(CCc2ccccc2)C[C@@H](C)[C@H](OC)CN(C)C3=O)c1	-18	0
O=C(N[C@@H]1CC[C@@H](CCn2cc(-c3ccccn3)nn2)O[C@H]1CO)c1cccnc1	16	4
C[C@@H]1CCCCO[C@H](CN(C)C(=O)Nc2ccc3c(c2)OCO3)[C@@H](C)CN([C@@H](C)CO)C(=O)c2cc(NC(=O)c3ccncc3)ccc2O1	14	4
C[C@H](CO)N1C[C@H](C)[C@@H](CN(C)Cc2ccc(C(=O)Nc3ccccc3N)cc2)Oc2c(NC(=O)c3nc4ccccc4s3)cccc2C1=O	14	16
COc1ccc(S(=O)(=O)N2CCCCN3[C@H](C2)[C@H](c2ccc(C#CCC(C)C)cc2)[C@@H]3CO)cc1	?	/
CN1CCN(C(=O)C[C@H]2CC[C@@H]3[C@H](COC[C@H](O)CN3C(=O)Nc3cc(Cl)cc(Cl)c3)O2)CC1	-4	-4
COc1cccc(NC(=O)N(C)C[C@@H]2Oc3cc(-c4cccc(C(=O)N(C)C)c4)ccc3S(=O)(=O)N([C@H](C)CO)C[C@H]2C)c1	0	1
COc1ccc(S(=O)(=O)N2C[C@@H](O)COC[C@H]3O[C@H](CC(=O)NCCCN4CCOCC4)CC[C@@H]32)cc1	20	13
C[C@H]1CN([C@@H](C)CO)S(=O)(=O)c2ccc(C3=CCCC3)cc2O[C@H]1CN(C)C(=O)c1ccccc1	14	10
C[C@@H]1CN([C@H](C)CO)C(=O)c2cccc(NC(=O)c3ccncc3)c2O[C@@H]1CN(C)C(=O)Nc1cccc2ccccc12	10	16
C[C@@H]1CN([C@@H](C)CO)C(=O)c2cccc(NS(=O)(=O)c3ccc(F)cc3)c2O[C@H]1CN(C)CC1CC1	3	7
CNC[C@@H]1Oc2ccc(NC(=O)Nc3ccc4c(c3)OCO4)cc2CC(=O)N([C@H](C)CO)C[C@H]1C	9	9
CCCNC(=O)N1[C@@H]2Cn3c(ccc(-c4ccccc4OC)c3=O)[C@H]1[C@@H](C(=O)N(C)C)[C@@H]2CO	14	12
C[C@@H]1CN([C@@H](C)CO)C(=O)c2cc(N(C)C)ccc2O[C@@H](C)CCCCO[C@H]1CN(C)C(=O)c1ccncc1	6	-2
C[C@@H]1CN([C@@H](C)CO)C(=O)c2cccc(NC(=O)c3cnccn3)c2O[C@@H]1CN(C)C(=O)NC1CCCCC1	8	4
CCCC(=O)Nc1ccc2c(c1)C(=O)N(C)[C@@H]1CC[C@H](CC(=O)NCC3CCCCC3)O[C@H]1CO2	-11	-6
CC(C)CC#Cc1ccc([C@@H]2[C@H]3CN(C(=O)Nc4ccccc4)CCCCN3[C@H]2CO)cc1	?	/
COCC#Cc1ccc2c(c1)O[C@H](CN(C)C(=O)C1CCCCC1)[C@H](C)CN([C@H](C)CO)S2(=O)=O	-5	-3

Overlap with the part before: two compounds, followed by the next part.
SMILES	Vaccinia stage	Vaccinia stage Venus
CC(C)CC#Cc1ccc([C@@H]2[C@H]3CN(C(=O)Nc4ccccc4)CCCCN3[C@H]2CO)cc1	?	/
COCC#Cc1ccc2c(c1)O[C@H](CN(C)C(=O)C1CCCCC1)[C@H](C)CN([C@H](C)CO)S2(=O)=O	-5	-3
COCCNC(=O)C[C@H]1CC[C@@H]2[C@@H](COc3ccc(NC(=O)c4ccno4)cc3C(=O)N2C)O1	12	-2
CCc1cnc(N2[C@H](C#N)[C@H](c3ccc(C#CCC4CCCC4)cc3)[C@@H]2CO)s1	-11	-15
CCNC(=O)[C@@H]1[C@@H](CO)[C@@H]2Cn3c(ccc(-c4ccccc4)c3=O)[C@@H]2N1CC	-14	-6
CCC(=O)Nc1ccc2c(c1)C(=O)N(C)C[C@H](OC)[C@@H](C)CN(C(=O)c1ccncc1)[C@H](C)CO2	17	4
C[C@H](CO)N1C[C@H](C)[C@@H](CN(C)Cc2ccc(-c3ccccc3)cc2)Oc2c(NC(=O)C3CCOCC3)cccc2C1=O	-20	-16
O=C([C@H]1[C@H](CO)[C@H]2Cn3c(cccc3=O)[C@@H]1N2CC1CCCC1)N1CCOCC1	13	14
C/C=C/c1ccc2c(c1)O[C@@H](CN(C)Cc1ccncc1)[C@@H](C)CN([C@H](C)CO)S2(=O)=O	-7	-12
C[C@H]1CN([C@@H](C)CO)C(=O)Cc2cc(NC(=O)Cc3ccccc3)ccc2O[C@H]1CN(C)S(=O)(=O)c1ccc(F)cc1	-9	-10
C[C@H]1CN([C@@H](C)CO)C(=O)c2cc(-c3ccc(F)cc3)cnc2O[C@@H]1CN(C)CC1CCCC1	-32	-20
C[C@@H]1CN([C@@H](C)CO)C(=O)c2cc(NC(=O)Nc3ccc4c(c3)OCO4)ccc2O[C@@H](C)CCCCO[C@H]1CN(C)Cc1ccc(C(=O)O)cc1	21	21
Cc1ccc(S(=O)(=O)N[C@@H]2C=C[C@@H](CC(=O)N3CCC(Cc4ccccc4)CC3)O[C@@H]2CO)cc1	?	/
C[C@H]1CN([C@@H](C)CO)S(=O)(=O)c2ccc(C#Cc3cccnc3)cc2O[C@H]1CN(C)C(=O)CN(C)C	1	1
CN(C)C(=O)C[C@H]1C=C[C@H](NC(=O)Nc2cccc(F)c2)[C@@H](CO)O1	17	13
O=C(C1CC1)N1CCCCN2[C@H](CO)[C@@H](c3ccc(C#CC4CCCC4)cc3)[C@@H]2C1	-16	-20
CCC(=O)N1CC2(CCN(C(=O)c3cccnc3)CC2)c2c([nH]c3cc(OC)ccc23)[C@H]1CO	12	6
O=C(CC(F)(F)F)N1C[C@@H]2[C@H](c3ccccc31)[C@@H](CO)N2C(=O)CN1CCOCC1	4	-1

The list is partial. The share of hits here may be higher or lower than overall.
